# TAR Tat displ = HIV-1 TAR-Tat binding disruption | hit rate 0.6% among 100,000 | z-score (test concentration not listed) | HIV-1 TAR RNA, Tat peptide displacement FRET; stronger effect = higher value;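 further: score is relative to mean and SD of negative controls; some compounds called inactive have numbers as strong as hits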
# CDC25B-CDK2 inh = human CDC25B-CDK2/CyclinA binding inhibition; AID 1259370; hit rate 0.72% among 94,000; z-score (concentration not given with the values); HTRF CDC25B-CDK2/CyclinA binding, anti-His/anti-Flag; stronger effect = higher value;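 further: score is relative to mean and SD of negative controls; strong numbers were not always called active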
# Starred values were filed as active, the others as inactive; . = no result given; & = joins results of further samples.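 How the source made its calls: active means z-score from 3 up in half or more of its runs; inactive means the rest.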
1	CCCc1cc(C(N)=S)ccn1
  TAR Tat displ = 22.2*; CDC25B-CDK2 inh = .
2	O=C(OC1C[C@@H]2CC3C[C@H](C1)N2CC3=O)c1c[nH]c2ccccc12 (stereo partly specified)
  TAR Tat displ = -0.26; CDC25B-CDK2 inh = -0.79
3	COC(=O)Nc1nc2ccc(S(=O)c3ccccc3)cc2[nH]1 (stereo unspecified)
  TAR Tat displ = -0.38; CDC25B-CDK2 inh = .
4	O=C1CCc2cc(OCCCCc3nnnn3C3CCCCC3)ccc2N1
  TAR Tat displ = 1.81; CDC25B-CDK2 inh = -1.54
5	CCOC(=O)Nc1ccc(NCc2ccc(F)cc2)nc1N
  TAR Tat displ = .; CDC25B-CDK2 inh = 2.92
6	CCN(CC)CCOC(=O)C(c1ccccc1)c1ccccc1
  TAR Tat displ = 2.26; CDC25B-CDK2 inh = .
7	COc1c(O)cc2c(c1O)[C@@H]1O[C@H](CO)[C@@H](O)[C@H](O)[C@H]1OC2=O
  TAR Tat displ = 1.87; CDC25B-CDK2 inh = .
8	CC[C@]12CCCN3CCc4c(n(c5ccccc45)[C@@](O)(C(=O)OC)C1)[C@@H]32
  TAR Tat displ = 1.93; CDC25B-CDK2 inh = .
9	Cc1ccsc1/C=C/C1=NCCCN1C
  TAR Tat displ = 0.14; CDC25B-CDK2 inh = .
10	NC(=O)c1ccc([N+](=O)[O-])cc1Cl
  TAR Tat displ = 0.28; CDC25B-CDK2 inh = .

11	Cc1oc2ccccc2c1CNC(=O)NCc1cccs1
  TAR Tat displ = .; CDC25B-CDK2 inh = -1.83
12	CCC(Cc1c(I)cc(I)c(N)c1I)C(=O)O (stereo unspecified)
  TAR Tat displ = 0.61; CDC25B-CDK2 inh = .
13	CN1C(=O)Cc2cc(S(=O)(=O)CCC(=O)N3CCN(c4ccccn4)CC3)ccc21
  TAR Tat displ = 1.11; CDC25B-CDK2 inh = .
14	NC(=O)NC(=O)Cc1ccccc1
  TAR Tat displ = 1.27; CDC25B-CDK2 inh = .
15	O=C(c1ccccc1)c1ccc2n1CCC2C(=O)O (stereo unspecified)
  TAR Tat displ = 0.97&-0.43; CDC25B-CDK2 inh = -2.36
16	CCC(=O)Nc1cc(C(C)(C)C)on1
  TAR Tat displ = 1.35; CDC25B-CDK2 inh = -0.95
17	CCCCN(CCCC)CC(O)c1cc(Cl)cc2c1-c1ccc(Cl)cc1/C2=C/c1ccc(Cl)cc1 (stereo unspecified)
  TAR Tat displ = .; CDC25B-CDK2 inh = -1.65
18	COc1cc(C)nc(-n2nc(C)cc2OC)n1
  TAR Tat displ = 2.21; CDC25B-CDK2 inh = .
19	C#C[C@]1(O)CC[C@H]2[C@@H]3CCC4=CC(=O)CC[C@@H]4[C@H]3CC[C@@]21CC
  TAR Tat displ = -0.41; CDC25B-CDK2 inh = .
20	CC1CCCCN1S(=O)(=O)c1ccc(N2CCCC2=O)cc1 (stereo unspecified)
  TAR Tat displ = 0.17; CDC25B-CDK2 inh = .

# 13 entries already listed, arranged by length of the SMILES, falling:
19	C#C[C@]1(O)CC[C@H]2[C@@H]3CCC4=CC(=O)CC[C@@H]4[C@H]3CC[C@@]21CC
  TAR Tat displ = -0.41; CDC25B-CDK2 inh = .
8	CC[C@]12CCCN3CCc4c(n(c5ccccc45)[C@@](O)(C(=O)OC)C1)[C@@H]32
  TAR Tat displ = 1.93; CDC25B-CDK2 inh = .
13	CN1C(=O)Cc2cc(S(=O)(=O)CCC(=O)N3CCN(c4ccccn4)CC3)ccc21
  TAR Tat displ = 1.11; CDC25B-CDK2 inh = .
2	O=C(OC1C[C@@H]2CC3C[C@H](C1)N2CC3=O)c1c[nH]c2ccccc12 (stereo partly specified)
  TAR Tat displ = -0.26; CDC25B-CDK2 inh = -0.79
4	O=C1CCc2cc(OCCCCc3nnnn3C3CCCCC3)ccc2N1
  TAR Tat displ = 1.81; CDC25B-CDK2 inh = -1.54
6	CCN(CC)CCOC(=O)C(c1ccccc1)c1ccccc1
  TAR Tat displ = 2.26; CDC25B-CDK2 inh = .
5	CCOC(=O)Nc1ccc(NCc2ccc(F)cc2)nc1N
  TAR Tat displ = .; CDC25B-CDK2 inh = 2.92
15	O=C(c1ccccc1)c1ccc2n1CCC2C(=O)O (stereo unspecified)
  TAR Tat displ = 0.97&-0.43; CDC25B-CDK2 inh = -2.36
12	CCC(Cc1c(I)cc(I)c(N)c1I)C(=O)O (stereo unspecified)
  TAR Tat displ = 0.61; CDC25B-CDK2 inh = .
16	CCC(=O)Nc1cc(C(C)(C)C)on1
  TAR Tat displ = 1.35; CDC25B-CDK2 inh = -0.95
9	Cc1ccsc1/C=C/C1=NCCCN1C
  TAR Tat displ = 0.14; CDC25B-CDK2 inh = .
14	NC(=O)NC(=O)Cc1ccccc1
  TAR Tat displ = 1.27; CDC25B-CDK2 inh = .

1	CCCc1cc(C(N)=S)ccn1
  TAR Tat displ = 22.2*; CDC25B-CDK2 inh = .

# Continuation.
21	Cc1cc(O)c2c(c1)C(=O)c1cccc(O)c1C2=O
  TAR Tat displ = -2.13; CDC25B-CDK2 inh = .
22	Cc1ccc(C(=O)C(C)CN2CCCCC2)cc1 (stereo unspecified)
  TAR Tat displ = 2.24; CDC25B-CDK2 inh = .
23	Cc1oncc1C(=O)Nc1ccc(C(F)(F)F)cc1
  TAR Tat displ = .; CDC25B-CDK2 inh = -1.91
24	CCN1CC(CCN2CCOCC2)C(c2ccccc2)(c2ccccc2)C1=O (stereo unspecified)
  TAR Tat displ = -0.72; CDC25B-CDK2 inh = .
25	Cc1ccc(Cc2c(C)nc3c(-c4ccccc4)c(C)[nH]n3c2=O)cc1
  TAR Tat displ = -0.52; CDC25B-CDK2 inh = 0.33
26	CCOC(=O)C1CCN(C(=O)CCC(=O)N2CCCn3nc(C)cc32)CC1
  TAR Tat displ = 1.79; CDC25B-CDK2 inh = .
27	CN1CCC(=C2c3ccccc3CC(=O)c3sccc32)CC1
  TAR Tat displ = 0.84&-0.71; CDC25B-CDK2 inh = -0.28
28	CN1CCN(c2c(F)cc3c(=O)c(C(=O)O)cn4c3c2SCC4)CC1
  TAR Tat displ = -1.05; CDC25B-CDK2 inh = .
29	CCOC(=O)c1c(C)oc2ncnc(NCCc3c[nH]c4ccccc34)c12
  TAR Tat displ = 0.61; CDC25B-CDK2 inh = .
30	c1ccc(CNCCNCc2ccccc2)cc1
  TAR Tat displ = .; CDC25B-CDK2 inh = -0.93

31	O=C(O)CCCCCCCC(=O)O
  TAR Tat displ = -0.25; CDC25B-CDK2 inh = 0.09
32	O=C(NCCN1CCOCC1)c1ccc(Cl)cc1
  TAR Tat displ = 0.33; CDC25B-CDK2 inh = -0.39
33	O=c1[nH]c(-c2ccc(C(F)(F)F)cc2)nc2c1CSCC2
  TAR Tat displ = 0.29; CDC25B-CDK2 inh = .
34	O=C1c2ccccc2C(=O)c2c(O)c(O)cc(O)c21
  TAR Tat displ = 3.46; CDC25B-CDK2 inh = .
35	Cc1nc2c([nH]1)c(=O)n(C)c(=O)n2Cc1ccco1
  TAR Tat displ = .; CDC25B-CDK2 inh = -1.78
36	CCCCOC(=O)c1ccc(N)cc1
  TAR Tat displ = 2.7; CDC25B-CDK2 inh = .
37	CN(C)CCC[C@@]1(c2ccc(F)cc2)OCc2cc(C#N)ccc21
  TAR Tat displ = 0.49; CDC25B-CDK2 inh = .
38	COc1cc2oc(=O)ccc2cc1O
  TAR Tat displ = 2.91; CDC25B-CDK2 inh = .
39	C[C@@H]1C[C@H]2[C@@H]3C[C@H](F)C4=CC(=O)C(Cl)=C[C@]4(C)[C@@]3(F)[C@@H](O)C[C@]2(C)[C@@]1(O)C(=O)CO
  TAR Tat displ = 0.13; CDC25B-CDK2 inh = .
40	OCC(O)CN1CCN(c2ccccc2)CC1 (stereo unspecified)
  TAR Tat displ = 1.79; CDC25B-CDK2 inh = .

# Retrieved one by one from the entries so far, 2 records:
7	COc1c(O)cc2c(c1O)[C@@H]1O[C@H](CO)[C@@H](O)[C@H](O)[C@H]1OC2=O
  TAR Tat displ = 1.87; CDC25B-CDK2 inh = .
27	CN1CCC(=C2c3ccccc3CC(=O)c3sccc32)CC1
  TAR Tat displ = 0.84&-0.71; CDC25B-CDK2 inh = -0.28

# Continued:
41	COc1ccc([C@@H]2CNC(=O)C2)cc1OC1CCCC1
  TAR Tat displ = 1.61; CDC25B-CDK2 inh = .
42	CC(=O)O[C@@]12CO[C@@H]1C[C@H](O)[C@@]1(C)C(=O)[C@H](O)C3=C(C)[C@@H](OC(=O)[C@H](O)[C@@H](NC(=O)OC(C)(C)C)c4ccccc4)C[C@](O)([C@@H](OC(=O)c4ccccc4)[C@H]21)C3(C)C
  TAR Tat displ = 2.6; CDC25B-CDK2 inh = .
43	CCCN(CCC)C(=O)C(CCC(=O)O)NC(=O)c1ccccc1 (stereo unspecified)
  TAR Tat displ = -0.33; CDC25B-CDK2 inh = -0.05
44	CN(C)CCOC(=O)C(c1ccccc1)C1(O)CCCC1 (stereo unspecified)
  TAR Tat displ = 1.72; CDC25B-CDK2 inh = .
45	Nc1cc(=O)[nH]c(N)n1
  TAR Tat displ = .; CDC25B-CDK2 inh = -2.67

# The list is partial; the hit share may differ from the screen's.
